Source: PubChem BioAssay
Mtb hypoxia inh – Mtb hypoxia fluorescent reporter inhibition; M. tuberculosis hypoxia-regulated fluorescent reporter, fluorescence; fluorescence inhibition, % (test concentration not listed); 0.1% of 300,000 active;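 active = 35 to 45% if threefold the growth effect, above 45% if 1.5-fold the growth effect; inactive = the rest, general growth blockers included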;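 also: wells of about 50 µL received 100 nL stock; 0% = vehicle wells and 100% = reference inhibitor wells; whole bacteria with a GFP reporter of the hypoxia response; strong numbers were not always called active; many hits fall short of the cut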
Sa RN4220 lethal – S. aureus RN4220 growth inhibition. OD600, 16 h. 0.33% of 330,000 active. inhibition, % (no concentration beside the values). AID 1259311;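 active = z-score of -3 or lower and OD600 up to 0.18 on both plates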;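 also: plate controls were untreated cells for no effect and reference antibiotic for full effect; stock transfer was 100 nL into about 80 µL; one replicate is shown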
Sa ugtP lethal – growth inhibition of S. aureus ugtP deletion strain | S. aureus RN4220 ugtP deletion, OD600 growth, 16 h; some inactives read as strong as hits | growth inhibition, % (no concentration beside the values) | 0.54% of 330,000 active;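 active = z-score under -3 and OD600 up to 0.15 on both plates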;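 also: plate controls were untreated wells for no effect and antibiotic for full effect; wells of about 80 µL received 100 nL stock; the first replicate is given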
BJeLR lethal – kills HRASV12-expressing BJeLR cells; BJeLR (HRASV12) viability, CellTiter-Glo ATP luminescence, 48 h; reference of the scale not given here; inhibition, % (concentration not given with the values); 0.17% of 300,000 active; AID 1554;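 active = replicate mean above 50%; inconclusive = above 50% but judged a plate artefact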;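 also: 50 nL library stock added to about 25 µL; numbers are from one replicate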
PrP 5UTR inh – inhibition of PrP 5' UTR reporter expression. cell-based PrP 5' UTR mRNA reporter, plate reader. inhibition, % (concentration not given with the values). 0.35% of 340,000 active. AID 488862;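 active = every replicate at 50% or more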;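 also: 0 = median of the neutral control wells; tested in H4 reporter cells; numbers are from one replicate; inactives centre near -14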
Bead autofluor – counter-screen for toxin protease inhibitors: compound fluorescence; compound autofluorescence counterscreen, microsphere flow cytometry; stronger effect = higher value; fluorescence intensity (concentration not given with the values); 3.1% of 360,000 active; AID 624483;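 active = at least 3 SD above the mean of all compounds, about 16000 in these data; inconclusive = too few beads counted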;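 also: 100 nL of 1 mM stock went into each well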
Mtb hypoxia inh growth – recorded beside Mtb hypoxia inh, whose call it bears; growth inhibition, %; measured here: M. tuberculosis growth (absorbance);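 0% = vehicle and 100% = reference antibiotic; read after six days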
An asterisk follows results filed as active; ? = inconclusive; · = no result given.

SMILES	Mtb hypoxia inh	Mtb hypoxia inh growth	Sa RN4220 lethal	Sa ugtP lethal	BJeLR lethal	PrP 5UTR inh	Bead autofluor
CCOC(=O)C(Cc1ccc(O)cc1)NC(=O)CNC(=O)C1CCCN1C(=O)OC(C)(C)C (centres undefined)	8.6	9.0	4.0	1.8	3.3	-15.2	4683
O=C(Oc1cccnc1)c1ccc([N+](=O)[O-])cc1Cl	15.5	16.6	-0.2	9.9	-13.8	-0.8	2033
COc1cc(/C=C2\SC(=O)NC2=O)ccc1Oc1ccc([N+](=O)[O-])cn1	14.0	6.5	3.2	9.4	-4.8	-14.3	4464
COCC(C)OC(=O)c1c(N)n(Cc2ccco2)c2nc3ccccc3nc12 (centres undefined)	·	·	-5.7	6.1	5.4	-3.5	4465
Cc1sc2nc(CN3CCCC3)nc(Cl)c2c1C	9.4	4.7	4.4	4.9	-1.2	-12.2	2627
O=C(/C=C/Nc1ccccc1OC(F)(F)F)C(F)(F)F	·	·	1.1	0.3	-6.1	-24.7	4522
O=C(NCCCNC(=O)c1ccc(F)cc1)c1ccc(F)cc1	7.2	7.0	0.3	1.1	-5.9	-14.2	4063
CCOc1ccc(-c2cc(C(=O)NCCCn3ccnc3)c3cc(Br)ccc3n2)cc1	·	·	·	·	1.7	-12.4	4977
Cc1ccsc1/C=N/NC(=O)Cn1nc(C)c([N+](=O)[O-])c1C	·	·	·	·	-5.3	-15.4	5899
CC(=O)c1cccc(OC(=O)c2cc(S(=O)(=O)N3CCOCC3)ccc2N2CCCC2)c1	-14.3	-3.5	1.8	-2.9	·	8.0	?
CCOC(=O)Nc1ccc(N2CCOCC2)c(S(=O)(=O)Nc2ccc(Cl)cc2)c1	6.5	5.7	2.4	-12.5	·	·	3588
COc1ccc(Br)cc1C1SCCN1S(C)(=O)=O (centres undefined)	·	·	-2.9	-0.4	5.6	-10.5	4103
COc1ccc([C@@H]2[C@@H]3C(=O)N(C(C)(C)C)C(=O)[C@@H]3[C@]3(CC(C)C)C(=O)N(c4ccc(C(F)(F)F)cc4)C(=O)N23)cc1	·	·	·	·	-2.0	12.4	3075
CCOC(=O)C[C@H]1c2cc(F)ccc2S(=O)(=O)N1C(C)C	·	·	·	·	-16.3	-16.6	3521
CC1CCN(C(=S)NCCc2ccccc2)CC1	8.8	5.4	1.0	4.0	-13.7	-38.7	7593
CCOn1c(=O)c(-c2cc3ccccc3o2)[n+]([O-])c2ccccc21	10.5	13.5	11.0	-4.9	1.2	-55.1	4225
c1ccc(CN2CCN(c3nc(N4CCOCC4)c4ccccc4n3)CC2)cc1	-69.4	-6.2	-1.9	21.1	2.4	-7.0	3655
Cc1ccc2cc(CN(CCc3ccccc3)C(=S)NCCCN(C)C)c(=O)[nH]c2c1	·	·	·	·	3.9	-7.9	4289
CCN(CC)c1ccc(/C=N/NC(=O)c2cnccn2)cc1	·	·	·	·	1.5	-14.6	3622
O=C(NC1CCCCC1)C(c1ccc2ncccc2c1)N(Cc1ccc2c(c1)OCO2)C(=O)c1ccc2c(c1)OCCO2 (centres undefined)	-12.5	1.5	0.6	7.9	11.4	-12.1	2468
CNC(=O)Cn1ncc2c3ccccc3n(C)c2c1=O	12.7	2.1	5.9	10.0	5.1	-10.1	3569
CSc1ccccc1C(=O)NCC1CCCO1 (centres undefined)	8.3	9.0	1.1	0.6	-7.5	-29.2	18506*
CCOC(=O)c1cc(-c2ccccc2)nn1CC1CC(c2ccc(Cl)cc2)=NO1 (centres undefined)	9.5	6.7	12.7	-6.7	3.1	-3.2	3878
COC(=O)c1cc(OC)c(OC)cc1NC(=O)c1cccnc1	-10.3	-2.9	-0.2	0.7	-14.4	·	·
CC1CCc2ccccc2N1C(=O)c1cccs1 (centres undefined)	19.4	8.6	4.6	13.3	-11.6	-23.0	9025
CCCCCCCCCCCCN1[C@@H](CC(=O)OC)c2cc(F)ccc2S1(=O)=O	·	·	·	·	12.7	11.6	3019
CC(=NNC(=O)c1nnn(-c2nonc2N)c1CSc1ccc(C)cc1)c1ccco1	2.1	-3.6	4.1	-4.3	·	·	·
Cc1ccc(N2C(=O)C(O)(C(F)(F)F)C3=C2CC(C)(C)CC3=O)cc1 (centres undefined)	0.9	-1.7	11.4	36.7	-3.9	-12.2	2281
CC(=O)Nc1ccc(C(=O)Nc2ccncc2)cc1	6.9	-0.5	4.7	9.3	-5.6	-67.3	3284
Cn1nc(-c2ccccc2)cc1NC(=O)c1ccccc1	15.0	4.7	0.6	-4.1	1.7	-17.6	4085
CCC(Sc1nc2cc3c(cc2c(=O)n1Cc1ccco1)OCO3)C(=O)Nc1cccc(OC)c1 (centres undefined)	-5.3	-1.3	2.2	-7.2	2.0	-38.5	21154*
O=C(Nc1ccc(F)c(Cl)c1)N1CCCCCC1	5.8	-0.5	-2.5	-7.7	4.4	-17.5	·
O=C(CNC(=O)c1ccco1)NNC(=O)c1cccc(Cl)c1	-3.6	15.1	-0.9	-0.2	·	·	6058
Cn1c(=O)n(C)c2cc([N+](=O)[O-])c(N3CCN(C(=O)c4cccc(Cl)c4)CC3)cc21	13.7	-0.7	19.6	-7.6	-0.8	-1.5	2490
O=S(=O)(/N=C(\Sc1ccc(Cl)cc1)c1ccccc1)c1ccccc1	·	·	·	·	-13.0	-24.6	7681
CC(=O)Nc1ccc(NC(=O)c2ccc(COc3ccccc3)cc2)cc1	7.1	-5.5	3.2	10.2	-5.9	-12.7	3026
O=S(=O)(NCC1CCCN(Cc2ccccc2O)C1)c1cccc2cccnc12 (centres undefined)	0.9	4.9	0.6	1.3	-3.2	-10.7	5187
O=C(Nc1ccn(Cc2ccc(F)cc2)n1)c1ccncc1	2.8	14.6	-22.4	-11.8	7.4	-9.9	?
CCOc1ccc(/C(C)=N\NC(=O)Cc2ccccc2)cc1	·	·	·	·	5.2	-14.1	3410
COc1cccc(Nc2c(F)c(F)c(F)c(F)c2C(=O)O)c1	·	·	23.1	-6.8	-3.2	-8.5	2288
CCn1nc(C)c(NS(=O)(=O)c2ccc(C)cc2)c1C	1.2	-3.3	11.1	20.1	5.9	-6.2	5158
COc1ccccc1NC(=O)c1coc(=O)c(Br)c1	3.6	0.0	0.7	9.5	-2.5	-84.3	3555
CCOC(=O)c1cnc(SC)nc1Sc1cc(Cl)ccc1Cl	·	·	-5.9	63.2	-2.8	30.5	2239
COc1ccc(/C=C2\SC(=S)N(CCCC(=O)Nc3ccc(O)cc3)C2=O)cc1	1.0	17.7	22.3	-12.1	-11.4	23.2	5322
CC(C)C12CN3CCN(CC(C3)C1O)C2 (centres undefined)	-1.5	3.2	1.8	1.8	2.7	-9.0	16737*

7 compounds drawn at random from the list so far:
SMILES	Mtb hypoxia inh	Mtb hypoxia inh growth	Sa RN4220 lethal	Sa ugtP lethal	BJeLR lethal	PrP 5UTR inh	Bead autofluor
COc1cccc(Nc2c(F)c(F)c(F)c(F)c2C(=O)O)c1	·	·	23.1	-6.8	-3.2	-8.5	2288
CCC(Sc1nc2cc3c(cc2c(=O)n1Cc1ccco1)OCO3)C(=O)Nc1cccc(OC)c1 (centres undefined)	-5.3	-1.3	2.2	-7.2	2.0	-38.5	21154*
O=C(CNC(=O)c1ccco1)NNC(=O)c1cccc(Cl)c1	-3.6	15.1	-0.9	-0.2	·	·	6058
CCOC(=O)c1cnc(SC)nc1Sc1cc(Cl)ccc1Cl	·	·	-5.9	63.2	-2.8	30.5	2239
O=S(=O)(/N=C(\Sc1ccc(Cl)cc1)c1ccccc1)c1ccccc1	·	·	·	·	-13.0	-24.6	7681
O=C(Nc1ccc(F)c(Cl)c1)N1CCCCCC1	5.8	-0.5	-2.5	-7.7	4.4	-17.5	·
O=C(Nc1ccn(Cc2ccc(F)cc2)n1)c1ccncc1	2.8	14.6	-22.4	-11.8	7.4	-9.9	?

Continuation.
SMILES	Mtb hypoxia inh	Mtb hypoxia inh growth	Sa RN4220 lethal	Sa ugtP lethal	BJeLR lethal	PrP 5UTR inh	Bead autofluor
COc1ccc(N(C(=O)c2ccco2)C(C(=O)NC2CCCC2)c2cccs2)c(OC)c1 (centres undefined)	2.7	9.1	-2.8	1.0	0.1	-19.8	3634
COc1cc(C=NN=C(N)c2nonc2N)cc(OC)c1O	-1.0	-4.1	-0.7	-3.1	·	·	·
Fc1ccc(NC(=S)Nc2cccnc2)cc1Cl	13.4	5.9	10.3	-11.2	2.4	-14.2	4229
CCCN(CCC)C(=O)c1cn(C)c2ccc(S(=O)(=O)N3CCCC3)cc2c1=O	9.1	1.4	3.5	-3.5	-4.0	-7.6	4956
O=C(CC1C(=O)NCCN1Cc1cccc(F)c1F)NCCCC1CCCC1 (centres undefined)	6.6	5.7	3.9	-11.0	1.9	-12.1	5635
CCc1ccccc1NC(=O)CNC(=O)c1cc(C2CC2)nc2c1cnn2C(C)C	2.5	1.9	3.8	17.2	·	-8.8	4637
O=c1sc(N2CCN(c3ccccc3F)CC2)nc2ccsc12	-3.2	7.5	14.2	-0.6	5.4	-77.6	6113
Cc1ccc(S(=O)(=O)N2CCOCC2)cc1C(=O)NCCCn1ccnc1	-8.1	-16.7	-0.6	8.8	-4.2	-15.3	4373
CCOC(=O)N1CCC(NC(=O)Cn2nc(Cc3ccncc3)c3ccccc3c2=O)CC1	-3.6	4.7	-4.5	-5.2	-10.9	-7.0	4586
Cn1c(SCc2ccccc2)nnc1C1CCCNC1 (centres undefined)	·	·	2.0	3.0	9.9	-6.4	3619
COc1ccc(C2SCC(=O)N2c2nnc(C34CC5CC(CC(C5)C3)C4)s2)cc1 (centres undefined)	1.6	5.2	-1.3	-4.0	17.5	-7.5	2242
CC(=O)c1cccc(Nc2nc(-c3sc(N)nc3C)cs2)c1	11.7	5.1	4.2	-6.2	-0.3	-3.5	2875
COc1ccc(C2SCCN2S(=O)(=O)c2ccc(NC(C)=O)cc2)cc1OC (centres undefined)	5.3	1.0	3.5	-1.4	-4.5	-16.5	6025
CSc1oc(-c2ccccc2)nc1S(=O)(=O)c1ccc(C)cc1	5.0	6.5	6.0	-7.7	2.9	-16.4	9483
O=C(NCCc1ccccc1)NC(Cc1ccccc1)C(=O)O (centres undefined)	5.8	2.7	-0.1	12.4	1.9	·	3046
O=C(/C=C/c1ccc([N+](=O)[O-])cc1)NC1CC2CCC1C2 (centres undefined)	·	·	·	·	3.1	-13.8	4623
O=C(Cc1ccc(Cl)cc1)N/N=C/c1ccncc1	·	·	·	·	4.1	-25.8	2169
O=C(Cc1c(F)cccc1Cl)NNC(=S)Nc1ccc(S(=O)(=O)Nc2ncccn2)cc1	3.6	13.8	-2.3	-3.3	0.2	6.6	6081
COc1cc(/C=N/O)cc(Br)c1OC	·	·	·	·	2.4	-8.6	2219
Cc1cccc(Cn2cc3c(=O)n(Cc4cccc(F)c4)nc-3c3ccccc32)c1	0.5	-1.1	2.5	3.2	-7.6	9.4	3791
COc1ccc(C=NNC(=O)c2ccncc2)cc1CN1CCN(c2ccc(F)cc2)CC1	·	·	-0.1	27.9	·	·	·
CCn1c(=N)n(CC(=O)c2ccc(Br)s2)c2ccccc21	11.3	9.4	-0.2	-7.5	4.6	·	4347
COc1ccc(NC(=O)CCn2c(=S)[nH]c3ccccc3c2=O)cc1	4.1	-7.0	5.5	1.4	4.0	-12.8	4587
Cc1cc(/C=C2\NC(=O)NC2=O)c(C)n1-c1cccnc1	7.3	3.5	3.6	9.0	-5.8	·	·
Cc1ccc(S(=O)(=O)N(C)/N=C/c2ccc(C(=O)O)cc2)cc1	·	·	·	·	-2.0	-8.0	2438
Cc1cc[n+](CC(=O)c2ccccc2)c2ccccc12	22.3	26.7	4.3	3.0	10.9	-15.8	3972
C=CCOc1ccccc1CNc1cccc(F)c1	4.5	9.1	-2.2	6.5	0.0	-0.6	2959
CCOC(=O)c1c(C)c(C(=O)N2CCCCCC2)c(C)n1C	5.9	7.7	7.5	-1.1	7.0	-9.2	23943*
O=C(CSCc1ccccc1)NNC(=S)Nc1cccc(Cl)c1Cl	6.6	10.6	1.1	9.4	11.1	-16.0	2843
Cc1occc1C(=O)N1CCN(c2ccc(Cl)cc2)CC1	·	·	·	·	-1.0	-21.0	?
COC(=O)c1c(C)[nH]c(C(=O)C(C)OC(=O)C2CC2C)c1C (centres undefined)	-2.9	5.3	-0.2	-2.2	·	-17.8	4030
CCOC(=O)c1n[nH]c2ccccc12	·	·	3.4	1.4	-8.8	-3.2	2429
C/C=C(\C)C(=O)Nc1cccc(C2=NOC3(C2)C[C@H](C(N)=O)N(C(=O)CC#N)C3)c1 (some centres undefined)	·	·	·	·	-32.1	-5.5	2888
